StopGo RLuc: FMDV 2A StopGo reporter, Renilla signal; 120,000 tested, 0.32% active; HEK cells with a luciferase reporter of 2A StopGo recoding; Potency, µM (titrated, usually from 57.5 µM), for the others: top-dose signal change, negative = less light; active means well fitted falling curve with a large enough effect; inconclusive means small, poorly fitted or top-dose-only effect; inactive means no such curve, though single readings can be large or run the other way; also: nearly all actives have a fitted effect of over 55% in size; overnight with compound
2A firefly: FMDV 2A StopGo reporter, firefly signal; HEK cells with a luciferase reporter of 2A StopGo recoding; 120,000 tested, 0.23% active; Potency, µM (doses to about 57.5 µM), without a hit: at the highest dose signal change, negative = less light; active = well fitted falling curve with a large enough effect; inconclusive = small, poorly fitted or top-dose-only effect; inactive = no such curve, though single readings can be large or run the other way; also: nearly all actives have a fitted effect of over 60% in size; overnight with compound
The depositor's hits bear a star; ? = inconclusive; & = joins results of further samples; [ ] = dose if it differs, or a comment. % is scaled to controls: 0 for no effect and ±100 for the full control effect; potency is read from the fitted curve at half-maximal effect.

SMILES,StopGo RLuc,2A firefly
CC(C)NC(=O)CNC(=O)C(=O)Nc1ccc2cc[nH]c2c1,-14%,40%[activator]
Cc1ccc(NC(=O)CSc2ccc(-c3cccs3)nn2)cc1Cl,7%,4%
CCOc1ccc(C(=O)Nc2cccc(Cl)c2N2CCCC2)cc1,20%,6%
Cc1ccccc1CNC(=O)c1ccccc1NC(=O)c1nsc2ccccc12,15%,86%[activator]
O=C(NC1CC(=O)N(c2ccccc2)C1)c1ccc(Br)o1 (stereo not drawn),2%,-18%
CCN(Cc1cccs1)C(=O)NCc1cccc(F)c1,-2%,32%[activator]
CC(C)CCNC(=O)CC(c1ccc(F)cc1)N1Cc2ccccc2C1=O (stereo not drawn),92%[activator],55%[activator]
Fc1ccc(CCNC(=S)NCc2ccccc2)cc1,144%[activator],106%[activator]
CC(/C=C/N(C)C)=C\C=[N+](C)C,4µM*,8.9µM*
O=[N+]([O-])c1c(-n2nnc3ccccc32)nn(-c2ccccc2)c1C(Cl)Cl,2%[1.06 µM],0%
Cc1cccc(NC(=O)c2ccc(-c3nc(CSc4ccccc4)c(C)o3)cc2)c1C,-7%,-7%
CCn1c(C)c(CCC(=O)NCCC2=NCc3ccccc32)c(=O)n2nc(-c3ccccc3OC)cc12,144%[activator],0%
CC(C(=O)Nc1cccc(C#N)c1)n1nnc(-c2ccccc2Cl)n1 (stereo not drawn),40%[activator],11%
CCn1cnc2c1c(=O)n(CC(=O)c1cc(C)n(C)c1C)c(=O)n2Cc1ccccc1,47%[activator],0%
COC(=O)c1ccc(/C=C(/C#N)C(=O)c2ccsc2)cc1,6%,12%
O=C(OCC(=O)c1cccs1)c1ccco1,11%,12%
Cn1c(NCc2ccc3c(c2)OCO3)nc2c1c(=O)n(Cc1ccc(F)cc1)c(=O)n2C,-3%,8%
Cc1cccc(-c2nnc(SCC(=O)Nc3ccc(F)c(F)c3)n2Cc2ccco2)c1,87%[activator],-5%
Cn1c(=O)c2nc(SCC(=O)Nc3ccc(Cl)c(Cl)c3)n(C)c2n(C)c1=O,0%,10%
COc1ccccc1-c1nc(S(=O)(=O)c2ccc3c(c2)OCCO3)c(NCCCN(C)C)o1,44%[activator],14%
CCCN(CCC)C(=O)c1cn(CC)c2ccc(S(=O)(=O)N3CCCCC3)cc2c1=O,11%,-9%
Fc1ccc(Nc2ncnc3c2nc2n3CCCC2)cc1,-9%,13%
CCN(CC)CCSCCOC(=O)c1oc2ccccc2c1C,9%,15%
O=C(CCc1ncc(-c2ccccc2F)o1)Nc1ccncc1,-2%,7%
CC(=O)N(CCC(C)C)c1nc(C)c(C(=O)Nc2ccc3[nH]ccc3c2)s1,34%[activator],68%[activator]
CC(OC(=O)c1nn(C(C)C)c(=O)c2ccccc12)C(=O)Nc1nc(-c2ccccc2)cs1 (stereo not drawn),13%,186%[activator]
COc1cccc(NC(=O)COC(=O)c2cc3c(C)nn(-c4ccc(F)cc4)c3s2)c1,-10%,1%
COCCNC(=O)c1c(-c2ccccc2)c(-c2ccccc2)nn(C)c1=O,9%,-15%
CN(C)C(CNC(=O)NCC(c1cccs1)N(C)C)c1cccs1 (stereo not drawn),-8%,-16%
Cc1cccc(Cn2c(N3CCN(Cc4ccccc4)CC3)nc3c2c(=O)[nH]c(=O)n3C)c1,-2%,-13%
CC(C)(C)Sc1ccc2nn(CC(=O)Nc3ccccc3F)c(=O)n2n1,8%,43%[activator]
COc1c(Cl)cc(C(=O)N2CCN(Cc3cc(=O)n4ccsc4n3)CC2)cc1Cl,-6%,-13%
O=C(NC1CCCCC1)c1nc(Cl)ccc1Cl,12%,0%
CC1CCCN(C(=O)c2cccc(S(=O)(=O)Nc3cc(C(F)(F)F)ccc3Cl)c2)C1 (stereo not drawn),57%[activator],-15%
N#Cc1cccc(NC(=O)C2CCN(S(=O)(=O)c3ccc4[nH]c(=O)ccc4c3)CC2)c1,5%,-6%
Cc1cc(=O)[nH]c2sc3c(C(F)(F)F)cc(=O)[nH]c3c12,12%,9%
COc1cccc(NC(=O)C2CCN(c3nc4ccccc4nc3C(F)(F)F)CC2)c1,0%,30%[activator]
COC(=O)[C@H](C(C)C)N1Cc2nnn(Cc3ccccc3)c2-c2ccccc2S1(=O)=O,0%,-13%
CC1=C(C(=O)Nc2ccccc2)C(c2cccc(Cl)c2)N2C(=O)CSC2=N1 (stereo not drawn),-9%,-6%
CC(C)CN(c1ccccc1)S(=O)(=O)c1nnc(NC(=O)C2CCCCC2)s1,-12%,10%
Cc1cccc(-c2cccc3c4c([nH]c23)[C@@H]2C[C@H](N(C)C(=O)c3cccc(Cl)c3)[C@H]([C@H](C)O)CN2CC4)c1,6%,6%
COC1CC(OC2CCC3(C=O)[C@H]4CCC5(C)C(C6=CC(=O)OC6)CCC5(O)[C@@H]4CCC3(O)C2)OC(C)C1O (stereo partly drawn),0.4µM*,0.28µM*
COc1ccc(-c2nc(NC(=O)c3ccc(C)c(F)c3)n[nH]2)cc1OC,-8%,22%
O=C(CSc1nc2ccccc2o1)OCC(=O)N1CCCC1,2%,19%
Cc1[nH]nc2c1C(c1ccc(F)cc1)C1=C(COC1=O)N2 (stereo not drawn),-2%,-10%
COc1ccc(-c2nc(C)c(CCNC(=O)c3ccc(C(F)(F)F)cc3)s2)cc1OC,4%,26%
Cc1cc2cc(NC(=O)c3ccc(C)c(C)c3)ccc2[nH]1,3%,179%[activator]
N#Cc1cccc(C(=O)OCc2cc(-c3ccc(Cl)cc3)no2)c1,37%[activator],0%

Another view of 5 compounds above.
Fields: StopGo RLuc | 2A firefly
COC1CC(OC2CCC3(C=O)[C@H]4CCC5(C)C(C6=CC(=O)OC6)CCC5(O)[C@@H]4CCC3(O)C2)OC(C)C1O (stereo partly drawn)
→ 0.4µM* | 0.28µM*
COc1ccc(-c2nc(NC(=O)c3ccc(C)c(F)c3)n[nH]2)cc1OC
→ -8% | 22%
O=C(CSc1nc2ccccc2o1)OCC(=O)N1CCCC1
→ 2% | 19%
Cc1[nH]nc2c1C(c1ccc(F)cc1)C1=C(COC1=O)N2 (stereo not drawn)
→ -2% | -10%
COc1ccc(-c2nc(C)c(CCNC(=O)c3ccc(C(F)(F)F)cc3)s2)cc1OC
→ 4% | 26%

The listing continues:
SMILES,StopGo RLuc,2A firefly
COC(=O)C(Br)(C(=O)OC)C(OC)(C(=O)OC)C(=O)OC,3%,0%
O=C(NCc1ccc(S(=O)(=O)N2CCOCC2)cc1)c1cc(Br)ccc1O,?,?
CCOc1ccccc1NC(=O)c1ncoc1-c1ccc(C)o1,12%,31%[activator]
COc1cc(OC)c(NC(C)c2nnc(-c3cccs3)o2)cc1Cl (stereo not drawn),1%,-15%
COc1ccc(CNC(=O)CSc2nc3ccccc3nc2Cc2ccccc2)cc1,-8%,3%
CC(C)CNC(=O)C1CCCC1,0%,5%
Cc1cc(Cl)ccc1OCC(=O)NC1CCN(C(C)C)CC1,-9%,-8%
O=C1CCC/C(=N/NC(=O)c2ccc(Cl)cc2)C1,21%,100%[activator]
Cc1c(C)c2ccc(OCc3nn[nH]n3)cc2oc1=O,-4%,9%
O=c1cc(-c2ccccc2F)oc2ccc(F)cc12,0%,42%[activator]
O=C(NC1CCCC1)c1ccc2c(Cl)c3c(nc2c1)CCCC3,-8%,110%[activator]
O=C(COC(=O)C1CCN(/C=C/C(=O)C(F)(F)F)CC1)NC(c1ccccc1)c1ccccc1,0%,-4%
Cc1nc(-c2cccc(N3CC(C(=O)NC4CCCCCCC4)CC3=O)c2)no1 (stereo not drawn),6%,11%
Cc1cc(C)cc(NC(=O)CN(c2cccc(C)c2C)S(=O)(=O)c2ccccc2)c1,-6%,15%
O=C(CSc1nc(-c2ccco2)cc(C(F)(F)F)n1)N1CCCCCC1,0%,-1%
CCCc1cc(C(=O)OCC(=O)NC(=O)NC2CCCC2)sc1C,-15%,-20%
CC(C)C(=O)Nc1ccccc1OCc1cc(=O)n2ccccc2n1,-9%,-15%
CCN1CCN(c2cc3c(cc2F)c(=O)c(S(=O)(=O)c2ccccc2)cn3C)CC1,-12%,-14%
Cc1ccc(CSc2ncc(Cl)c(C(=O)NCc3ccccc3)n2)cc1,-12%,-16%
Cc1nn2c(-c3ccco3)ccnc2c1-c1ccc(Br)cc1,6%,29%
Cc1ccc2c(=O)cc(C(=O)NCC(c3ccco3)N3CCOCC3)oc2c1C (stereo not drawn),15%,3%
O=C(CSc1ncc2c(n1)-c1cc(Cl)ccc1N(Cc1ccccc1F)S2(=O)=O)Nc1cccc(C(F)(F)F)c1,8%,-19%
CC(=O)N1c2ccccc2C(=O)C1N1CCN(c2ccccc2)CC1 (stereo not drawn),-8%,-14%
O=C(N/N=C/c1ccccc1)c1ccc[n+]([O-])c1,-7%,10%
Cc1cccn2cc(CSc3ncnc4ccccc34)nc12,1%,53%[activator]
CC(=O)c1cccc(NC(=O)C(C)n2c(=O)cc(C)c3c(C)nn(-c4ccccc4)c32)c1 (stereo not drawn),-1%,-12%
Cc1cc(C)cc(OCc2nnc(SCC(=O)NC3CCCCCC3)n2C)c1,2%,14%
N#Cc1cccc(Nc2ncnc3c2cnn3-c2cccc(Cl)c2)c1,9%,60%[activator]
O=C(Nc1cccnc1Cl)C1CCCCC1,8%,0%
Cc1ccc2c(CN3C(=O)C(=O)N(C4CCCC4)C3=O)cc(=O)oc2c1C,1%,10%
C=CCc1cc(/C=C2/NC(=O)NC2=O)cc(OCC)c1OCc1ccc(C(=O)O)cc1,38%[activator],57%[activator]
CC(C)CC(=O)NC1CC(=O)N(c2ccc3c(c2)OCCO3)C1 (stereo not drawn),-4%,1%
COc1ccc(CCNC(=O)c2ccc3c(=O)n(-c4ccccc4)c(=O)[nH]c3c2)cc1OC,-10%,-9%
O=C(CSc1ncc2c(n1)-c1ccc(Cl)cc1N(Cc1ccccc1)S2(=O)=O)Nc1ccc(F)c(F)c1,-16%,-21%
COc1ccc(CNC(=O)CSc2ncc3c(n2)-c2ccc(Cl)cc2N(Cc2ccc(F)cc2)S3(=O)=O)cc1OC,6%,-9%
O=C(CCS(=O)(=O)c1cccc2nsnc12)N1CCN(c2cccc(Cl)c2)CC1,-26%,-25%
Cc1ccc(NC(=O)c2ncoc2-c2ccc(C)o2)c(Cl)c1,-1%,9%
O=C(Nc1ccccc1F)c1ccc2c(=O)n(-c3ccccc3)cnc2c1,-7%,92%[activator]
CCOc1ccc(NC(=O)CSc2ncc3c(n2)-c2cc(Cl)ccc2N(C)S3(=O)=O)cc1,-3%,14%
O=C(O)c1ccc(C(=O)c2ccc(Br)cc2)cc1,3%,24%
N#Cc1c(SCC(=O)N2CCOCC2)nc(N2CCCCC2)c2c1CCCC2,?,?
CC(=O)OCC1=C(C(=O)O)N2C(=O)[C@@H](N)[C@H]2SC1,-8%[23.8 µM],-9%[5.23 µM]
CCc1ccc(-c2[nH]c3c(c2-c2sc(C)c(C(=O)OC)c2O)c(=O)n(C)c(=O)n3C)cc1,-6%,-16%
O=C(c1ccccc1Cl)[C@@H]1[C@@H]2CCCN2[C@]2(C(=O)Nc3ccccc32)[C@@]12C(=O)Nc1ccccc12,-22%,-18%
COc1ccc(-c2nc(CS(=O)(=O)CC(=O)NCCc3ccc(C)cc3)c(C)o2)cc1,0%&-8%,-5%&-6%
CC(C)(C)NC(NC(=O)c1ccc([N+](=O)[O-])cc1)C(Cl)(Cl)Cl (stereo not drawn),-7%,-4%
Cc1ccc(-c2nc(C#N)c(N3CCN(C)CC3)o2)cc1,-1%,0%
CCN(C(=O)CSc1nc(-c2ccc(C(C)C)cc2)no1)c1ccccc1,-19%,12%
COc1ccccc1NC(=O)CSc1nc2ccccc2c2nc(-c3ccccc3)nn12,-3%,-15%
C(#CCN1CCOCC1)CC(c1ccccc1)c1ccccc1,10%,11%
O=C(CSc1nc(-c2cccs2)cc(C(F)(F)F)n1)Nc1ccccc1Cl,-8%,-2%
COc1cc(C(=O)NC(C)Cn2cccn2)cc(Cl)c1OC (stereo not drawn),-6%,-9%
Cc1ccc(-n2ncc(C(=O)N3CCC(c4ccccc4)C3)c2C2CCN(C(=O)OC(C)(C)C)CC2)cc1 (stereo not drawn),-9%,-8%
CCSc1nc(N2CCOCC2)c2sc3c(c2n1)COC(C)(C)C3,-1%,-1%
COc1cc(Br)c2cc(C(=O)O)[nH]c2c1OC,12%,27%
COc1ccc(C2NC(=S)NC3=C2CCc2cc(OC)ccc23)cc1 (stereo not drawn),25%,16%

Continued:
SMILES,StopGo RLuc,2A firefly
Cc1ccc(CNC(=O)Cc2c[nH]c3ccccc23)cc1,4%,118%[activator]
CCOC(=O)N1CCC(NC(=O)c2cnn(-c3cccc(C)c3)c2-n2cccc2)CC1,-12%,-17%
O=C(NCCCN1CCN(c2ccccc2F)CC1)c1ccc2nc(CCc3ccccc3)oc2c1,12%,-68%
O=C(NCC#Cc1cccc(C(F)(F)F)c1)NC1CCN(Cc2ccccn2)CC1,-23%,-11%
COCCNC(=O)Cn1cc(S(=O)(=O)Cc2ccccc2)c2ccccc21,-7%,-8%
CCOCCn1c(=O)c2c(nc3n2CCN3c2ccc(C)c(C)c2)n(C)c1=O,-1%,3%

Screens: PubChem BioAssay, National Center for Advancing Translational Sciences (NCATS)
